RecA intein inh = Mtb RecA intein splicing inhibition; P9WHJ3; cell-free RecA intein splicing, fluorescence; inhibition, %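 (about 9 µM by stock and volumes)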; 290,000 tested, 0.75% active; in the data active = inhibition above about 30%; inconclusive = no clear call, values can overlap the other calls;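 note: 0% = vehicle wells and 100% = reference inhibitor control wells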
Target sequence (P9WHJ3 whole entry, looked up): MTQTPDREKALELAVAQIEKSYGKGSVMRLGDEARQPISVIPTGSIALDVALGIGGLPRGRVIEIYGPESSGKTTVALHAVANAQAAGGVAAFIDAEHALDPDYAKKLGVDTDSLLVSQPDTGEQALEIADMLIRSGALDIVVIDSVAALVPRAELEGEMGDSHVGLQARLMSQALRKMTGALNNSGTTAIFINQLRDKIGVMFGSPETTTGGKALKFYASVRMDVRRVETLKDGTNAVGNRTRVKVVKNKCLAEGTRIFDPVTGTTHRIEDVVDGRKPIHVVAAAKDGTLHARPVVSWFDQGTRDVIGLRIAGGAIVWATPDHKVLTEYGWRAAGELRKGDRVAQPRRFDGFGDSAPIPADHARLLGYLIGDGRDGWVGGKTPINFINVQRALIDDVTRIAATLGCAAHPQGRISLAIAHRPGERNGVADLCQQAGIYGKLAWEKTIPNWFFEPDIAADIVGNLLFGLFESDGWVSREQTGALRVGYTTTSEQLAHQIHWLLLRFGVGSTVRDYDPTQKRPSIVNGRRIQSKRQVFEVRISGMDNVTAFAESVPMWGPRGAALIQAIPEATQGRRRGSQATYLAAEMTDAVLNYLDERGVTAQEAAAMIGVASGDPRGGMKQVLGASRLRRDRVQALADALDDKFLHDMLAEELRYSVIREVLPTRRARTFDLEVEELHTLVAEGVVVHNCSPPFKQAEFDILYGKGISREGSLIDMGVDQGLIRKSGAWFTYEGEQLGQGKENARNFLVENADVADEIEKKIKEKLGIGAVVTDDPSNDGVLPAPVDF
Mtb betalactam = beta-lactam sensitization of Mtb H37Rv; 330,000 tested, 0.27% active; M. tuberculosis H37Rv growth with meropenem, percent inhibition; hits of this screen are not shown here; inhibition, % at 25 µM;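 active = about 74% or more and at least 40 points above the plate without the antibiotic, then above 30% in a dose series; inconclusive = first-round hits that could not be retested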;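 note: growth measured after seven days incubation then overnight dye step; 0% = bacteria only wells and 100% = bacteria with antibiotic; twin plates without the antibiotic show which effects depend on it; some results filed as inactive read as strong as hits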
Arbovirus anti = arbovirus infection inhibition; arbovirus infection cell-based antiviral screen; inhibition, % at 10 µM; 200,000 tested, 0.37% active;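 active = inhibition from about 30%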;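 note: bluetongue infection of BSR cells; cell survival read as ATP light after 72 h; 0% = infected wells without compound and 100% = uninfected wells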
YopH PTP inh = inhibitors of Yersinia enterocolitica YopH tyrosine phosphatase; fluorescence Ex485/Em525; inhibition, %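 (about 10 µM by stock and volumes)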; 140,000 tested, 0.16% active;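 active = inhibition of 50% or more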;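 note: controls were vehicle for no effect and minimum signal wells for full effect; inactives centre near -20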
Mtb H37Rv = M. tuberculosis H37Rv growth inhibitors, H37Rv strain (AID 1626) | M. tuberculosis H37Rv growth inhibition; higher % means a stronger effect | 220,000 tested, 0.95% active | inhibition, % at 10 µM; hits with a dose series show IC50 in µM;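 active = confirmed in a dose series; inconclusive = inhibition above 80% but not taken into the dose series; inactive = below 80% or under 30% at every dose of the series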;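 note: bacteria incubated seven days before Alamar blue readout; 0% = bacteria only wells and 100% = bacteria with antibiotic wells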
Arbovirus anti repeat = further read-out of Arbovirus anti, marked with its call; inhibition, %; measured here: 10K subset replicate screen; many hits read low in the repeat;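 first of two repeat runs on a subset; 0% = infected and 100% = uninfected wells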
An asterisk follows results filed as active; u = inconclusive; x = not tested or not shown.

SMILES	RecA intein inh	Mtb betalactam	Arbovirus anti	YopH PTP inh	Mtb H37Rv	others
COc1cc(C(=O)C(=O)c2cc(OC)c(O)c(OC)c2)cc(OC)c1O	5.5	5	x	x	-12%
COc1cc(-c2nc3ccccc3s2)ccc1O	-3.7	1	-42	-30	15%
O=C1OC2(c3ccccc3)C3CCCC2C13	-1.0	-19	7	-37	0%
CCCS(=O)(=O)c1ncc(Cl)c(C(=O)Nc2ccc(S(=O)(=O)Nc3ncccn3)cc2)n1	26	4	x	x	x
CCCC(=O)Nc1cc(OCC)c(NC(=O)NC2CCCCC2)cc1OCC	2.3	13	-4	-29	-1%
Cc1cc(C(F)F)nn1CC(=O)NCc1ccco1	-1.0	2	4	-33	-4%
COC(CNC(=O)CCc1c(C)nc2c(c(C)nn2-c2ccc(C)cc2)c1C)OC	1.7	2	x	x	x
CN(C)N1C(N)=C(C#N)C(c2cccc(Cl)c2)C2=C1CCCC2=O (stereo not drawn)	-6.6	-8	x	x	x
CCOC(=O)C(C)Oc1nc(Oc2ccccc2)nc(N(C)C)n1 (stereo not drawn)	-0.9	15	-1	-30	-1%
Cc1[nH]nc(N)c1-c1ccccc1	1.9	3	7	x	-1%
O=C(CSc1nccc(=O)[nH]1)N1CCc2ccccc2C1	0.8	1	-1	-40	1%
COc1cccc(OCC(=O)NNC(=O)C(=O)Nc2ccc(OC)cc2OC)c1	0.6	89	x	x	x

Reprinted at random: 2 records from the list, in no set order.
SMILES	RecA intein inh	Mtb betalactam	Arbovirus anti	YopH PTP inh	Mtb H37Rv	others
CCCS(=O)(=O)c1ncc(Cl)c(C(=O)Nc2ccc(S(=O)(=O)Nc3ncccn3)cc2)n1	26	4	x	x	x
COc1cc(-c2nc3ccccc3s2)ccc1O	-3.7	1	-42	-30	15%

Next part.
SMILES	RecA intein inh	Mtb betalactam	Arbovirus anti	YopH PTP inh	Mtb H37Rv	others
Cc1cc(OCC(=O)Nc2ccc(S(=O)(=O)NC3=NCCCCC3)cc2)c(C(C)C)cc1Cl	-3.5	1	-15	-10	16%
O=C(NCc1ccccn1)c1ccc([N+](=O)[O-])cc1	-0.7	-7	-4	-23	-10%
CCN(CC(=O)Nc1ccc2c(c1)OCO2)S(=O)(=O)c1ccccc1	4.5	-1	x	x	x
O=C(CC1C(=O)NCCN1Cc1cccc(F)c1F)NC1CCCCCC1 (stereo not drawn)	0.3	-2	x	x	x
Cc1cc(C(=O)Nc2cccc(S(=O)(=O)N3CCCCC3)c2)c2ccccc2n1	-4.1	-8	21	x	0%
CC1CCc2sc(C(=O)OCC(=O)NC(N)=O)cc2C1 (stereo not drawn)	-1.9	15	x	x	x
c1cncc(-c2nc(NCCCn3ccnc3)c3ccccc3n2)c1	-1.0	0	12	x	1%
COc1ccc(OCc2cc(C(=O)NC(C)c3csc(C)n3)no2)c(Cl)c1 (stereo not drawn)	0.9	-8	x	x	x
Cc1ccc(C2Oc3ccccc3C3=C2C(c2cccs2)n2ncnc2N3)cc1 (stereo not drawn)	-3.8	78	-9	-21	17%
Cn1c(NC(=O)/C=C/c2ccc(Cl)c(Cl)c2)cc(=O)n(C)c1=O	2.2	-5	-6	-14	-7%
O=C(NCCN=C1NS(=O)(=O)c2ccccc21)c1ccc2nccnc2c1	0.5	-12	-2	-50	-2%
C=CCOC(=O)C1=C(C)NC(=S)C(C#N)(CC=C)C1c1ccccc1Cl (stereo not drawn)	8.2	-3	x	x	0%

The list goes on (7 carried over from the part before).
SMILES	RecA intein inh	Mtb betalactam	Arbovirus anti	YopH PTP inh	Mtb H37Rv	others
CC1CCc2sc(C(=O)OCC(=O)NC(N)=O)cc2C1 (stereo not drawn)	-1.9	15	x	x	x
c1cncc(-c2nc(NCCCn3ccnc3)c3ccccc3n2)c1	-1.0	0	12	x	1%
COc1ccc(OCc2cc(C(=O)NC(C)c3csc(C)n3)no2)c(Cl)c1 (stereo not drawn)	0.9	-8	x	x	x
Cc1ccc(C2Oc3ccccc3C3=C2C(c2cccs2)n2ncnc2N3)cc1 (stereo not drawn)	-3.8	78	-9	-21	17%
Cn1c(NC(=O)/C=C/c2ccc(Cl)c(Cl)c2)cc(=O)n(C)c1=O	2.2	-5	-6	-14	-7%
O=C(NCCN=C1NS(=O)(=O)c2ccccc21)c1ccc2nccnc2c1	0.5	-12	-2	-50	-2%
C=CCOC(=O)C1=C(C)NC(=S)C(C#N)(CC=C)C1c1ccccc1Cl (stereo not drawn)	8.2	-3	x	x	0%
O=C(CN1CCN(c2ccc(O)cc2)CC1)Nc1ccc(SC(F)F)cc1	-3.3	78	-20	-16	13%
CCOC(=O)Cc1csc(NC(=O)c2c(C)noc2C)n1	-0.6	-18	x	x	x
CCc1n[nH]c(=S)n1/N=C/c1ccc(N(C)c2ccccc2)cc1	-16	5	-2	x	5%
COc1nn(-c2nc(-c3ccccc3)cc(C(F)(F)F)n2)cc1[N+](=O)[O-]	1.4	6	1	-22	-3%
O=C(COC(=O)Cc1cccs1)NCc1ccc(F)cc1	-20	-1	x	x	x
COC(=O)C1=C(C)NC(=S)NC1c1ccc(-c2cc(Cl)ccc2Cl)o1 (stereo not drawn)	-0.5	3	x	x	9%
CC[C@@H](C)[C@H](CN[C@H](CNC)[C@@H](C)O)NCCc1ccc(OC)cc1	0.4	25	x	x	x
CC1(C)CC(=O)C(CC2=C(O)CC(C)(C)CC2=O)=C(O)C1	-0.2	40	5	6	2%
CSc1nc2cc(S(=O)(=O)N3CCCCC3)ccc2s1	0.7	x	x	x	-10%
CCCC(c1nnnn1CCc1ccccc1)N1CCN(C(=O)c2ccco2)CC1 (stereo not drawn)	0.5	-8	2	-28	-1%
O=[N+]([O-])c1ccc(N2N=C(c3ccccc3)CC2c2ccccc2O)cc1 (stereo not drawn)	-54	24	x	x	x
CC(C)(C)c1ccc(O)c(N=Cc2cc(Br)ccc2O)c1	-5.1	0	-1	x	9%
COc1cc2cc(C(=O)N(C)C3CCS(=O)(=O)C3)[nH]c2cc1OC (stereo not drawn)	4.0	0	x	x	x
CCc1ccc(Nc2nnc(SC3CCOC3=O)s2)cc1 (stereo not drawn)	-1.9	2	9	-47	2%
COc1ccc(Cl)cc1NC(=O)CCn1cnc2ccccc2c1=O	2.1	-1	-2	-33	2%
CCn1c(=NC(=O)CN2C(=O)CCC2=O)sc2c(C)cc(C)cc21	x	x	-2	-14	4%	Arbovirus anti repeat=1
Cc1nn(-c2ccccc2)c2[nH]c(=O)c(CNCc3ccc4c(c3)OCO4)cc12	1.0	-12	3	-16	-2%
CCCc1[nH]n(-c2nc3ccccc3s2)c(=O)c1C=NCCN1CCOCC1	3.8	27	5	-37	-5%
NNC(=O)c1nnn(-c2nonc2N)c1-c1cccs1	-0.5	1	-1	12	-6%
Cc1ccccc1OCC(=O)Nc1cccc(NC(=O)c2ccco2)c1	1.8	-7	-6	0	3%
O=C(NCc1ccc2c(c1)OCO2)c1c[nH]c2ccc(S(=O)(=O)N3CCOCC3)cc2c1=O	-1.6	3	-3	-40	-10%
O=C(Nc1ccccc1)c1nnsc1S(=O)(=O)c1ccc(Cl)cc1	70*	16	-30	-28	2%
CC1=C/C(=C/N(C)C)C(=O)O1	-3.8	-1	21	x	-10%
COc1ccc2cc(C(=O)NC3CCCCC3)c(=O)oc2c1	7.1	x	2	-17	3%
COC(=O)CCCC1=CC2=CC(=O)C(C)(OC(=O)c3cccs3)C(=O)C2=CN1CCCOC(C)C (stereo not drawn)	2.3	-3	x	x	-9%
Cc1ccc(Cl)c(OC(=O)c2ccc(N3CCOCC3)c([N+](=O)[O-])c2)c1	6.2	97	-3	-36	6.6µM*
Cc1ccc(NCc2nnc(SCC(=O)N3CCCCC3)n2CC2CCCO2)c(C)c1 (stereo not drawn)	4.7	-5	x	-4	-19%
O=C(c1cc(COc2cccc(C(F)(F)F)c2)on1)N1CCSCC1	0.0	12	x	x	x
Cc1cc(C)c(-n2c(O)c(/C=N/N3CCCCC3c3cccnc3)c(=O)[nH]c2=O)c(C)c1 (stereo not drawn)	-1.9	3	4	-33	3%
COc1ccccc1C1C(C(=O)c2cc3ccccc3o2)=C(O)C(=O)N1c1cc(C)on1 (stereo not drawn)	4.0	78	x	x	x
CN(C)c1ccc(/C=N/c2cc(-c3ccccc3)nn2-c2ccccc2)cc1	2.4	6	6	-4	-1%
O=C(CCC1CC(=O)Nc2ccccc21)NCc1ccccc1 (stereo not drawn)	0.8	-4	-1	-15	-3%
C/C(=N\NC(=O)c1cc(C)nc2ccccc12)c1ccco1	2.0	-5	-2	x	-5%
COc1cccc(CNc2nc3nc(C)cc(C)n3n2)c1	4.5	u	-5	-41	-6%
Nc1nc(Cl)nc2c1ncn2C1CC(O)C(CO)O1 (stereo not drawn)	2.1	40	x	x	x
COc1ccc(C2CC(O)(c3ccccc3)Oc3cc(OC)cc(OC)c32)cc1 (stereo not drawn)	3.5	x	x	x	-4%
Cc1nc2c(C(=O)NCc3ccc4c(c3)OCO4)c[nH]n2c(=O)c1Cl	-4.8	10	18	-11	-9%
CCCCn1c(N)c(N(CC(C)C)C(=O)CN(C)S(=O)(=O)c2ccc(F)cc2)c(=O)[nH]c1=O	-2.8	-11	x	x	x
CC(C)(C)C(=O)Nc1cccc(OC(F)(F)C(F)Cl)c1 (stereo not drawn)	0.1	-11	-3	x	8%
CCCCC(CC)CNC(=O)c1ncn[nH]1 (stereo not drawn)	-1.4	-5	-9	x	-3%
COCCN(C(=O)COC(=O)Cc1coc2cc3c(cc12)CCC3)c1c(N)n(Cc2ccccc2)c(=O)[nH]c1=O	4.2	-10	x	x	x
CC1CCCCN1C(=O)CSc1nc(C2CC2)nc2ccccc12 (stereo not drawn)	16	-6	x	x	x
CC(C)CSc1nnc2c3ccccc3n(C)c2n1	3.2	-3	x	x	x
O=C(COc1ccccc1)NCC(=O)Nc1ccc(S(=O)(=O)NCc2ccco2)cc1	1.1	6	-6	-25	7%
CC1CCN(C(=O)CCCNC(=O)Cn2cnc3sc4c(c3c2=O)CCCC4)CC1	-5.6	4	6	-16	x
CCSc1nc(N2CCOCC2)c2c(c1C#N)CC(C)(C)N(C)C2	-3.7	4	6	14	-1%
O=C(NC1CCCC1)C1CCN(S(=O)(=O)c2ccccc2)CC1	-0.3	0	x	x	x
O=C(COc1ccccc1Cl)N1CCN(C(=O)c2ccco2)CC1	-2.9	1	x	x	x
COCC(=O)N1CCN(c2ccc([N+](=O)[O-])cc2)CC1	3.8	-10	5	-36	3%
COc1ccc(OC)c(NC(=O)N2CCCC(CNS(=O)(=O)c3cccs3)C2)c1 (stereo not drawn)	-4.6	-2	6	x	-6%
CC1CN(C(=O)COC(=O)c2ccc(C#N)cc2)CC(C)O1 (stereo not drawn)	-0.7	1	x	x	x
CCN(C(=O)COC(=O)CNS(=O)(=O)c1ccccc1)c1ccccc1	4.3	-9	21	x	27%
Cc1[nH]c2ccccc2c1C(=O)C(=O)N(C)C1CCCCC1	-0.6	-2	x	x	x
O=C(N/N=C/c1ccccn1)c1c[nH]c2ccccc12	-2.6	4	x	x	-1%
CCCC(=O)NCCc1cc2cc(C)c(C)cc2[nH]c1=O	3.4	x	4	-16	2%
CCC(=O)N1CCc2cc(S(=O)(=O)CCC(=O)NCc3ccc(C)cc3)ccc21	-3.2	-3	x	x	x
Cc1ccc(OCC(=O)N/N=C2\CCOc3c(C)cccc32)cc1	3.8	2	7	-37	-8%
Cc1cccc(NC(=O)CSc2nnc(C)c(=O)n2N)c1C	-3.8	-7	0	-17	-3%
CCc1nc(N)c(C#N)c(-c2ccncc2)c1C	7.3	u	-6	-1	5%
COc1ccc(C)cc1NC(=O)CN1C(=O)COc2ccc(S(=O)(=O)N3CCOCC3)cc21	0.1	-2	x	x	x
Following part.
SMILES	RecA intein inh	Mtb betalactam	Arbovirus anti	YopH PTP inh	Mtb H37Rv	others
Cc1cc(C)c(C#N)c(N2CCN(Cc3ccc4c(c3)OCO4)CC2)n1	2.1	-7	1	1	-9%
Cn1c(=O)c2[nH]c(-c3cccnc3)nc2n(C)c1=O	-3.4	10	-3	3	0%
COc1ccc(C)cc1N(C)C(=O)Cc1c(C(=O)O)n(C)c2ccccc12	1.3	5	x	x	x
COc1ccc(CC(NC(=O)c2ccccc2)C(=O)NCC(=O)O)cc1 (stereo not drawn)	-0.4	-3	8	-22	-1%	Arbovirus anti repeat=2
Cc1ccc([N+](=O)[O-])cc1N(CC(=O)N1CCCCC1)S(C)(=O)=O	-3.2	-4	1	x	0%
CC(=O)Nc1ccc(C(=O)Nc2ccc(S(=O)(=O)N3CCCC3)cc2)cc1	-1.8	2	5	-10	-18%
Cc1ccc(NC(=O)Nc2nc3ccccc3s2)cc1NC(=O)Nc1nc2ccccc2s1	0.2	-4	x	x	-2%
Cc1ccc(NC(=O)Cn2nc(C)c([N+](=O)[O-])c2C)cc1Cl	2.0	x	-3	x	0%
CCOc1ccccc1/C=C/c1onc(C)c1S(=O)(=O)N1CCC(C(=O)N(CC)CC)CC1	2.3	2	x	x	x
CCOc1ccc(OCCC(=O)OCC(=O)Nc2ccc3c(c2)OCO3)cc1	1.2	35	x	x	x

Not all compounds are listed; rates above refer to the full screens.
